PKD1 inh: inhibitors of human PKD1 kinase, biochemical, fluorescence polarization. Serine/threonine-protein kinase D1 (Homo sapiens), Q15139. PKD1 kinase fluorescence polarization assay. inhibition, %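 (about 10 µM by stock and volumes)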. 200,000 compounds, 0.056% hits. AID 797, 2007;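 active means inhibition of 50% or more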;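 further: controls were vehicle for no effect and a reference inhibitor for full effect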
HSV replic up: enhancers of HSV replication in host cells, fold increase, host cell viability; HSV replication augmentation in cells; 220,000 compounds, 0.005% hits; maximum fold increase; AID 1956, 2009;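 active means peak rise of 1.5-fold or more in the series; inconclusive means self-fluorescent or not available for retest; tested in PC3 cells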;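 further: first round at 10 µM; read as green reporter fluorescence; hits show the peak of a series up to 25 µM; 1 = signal of infected wells without compound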
Insulin prom inh: inhibitors of insulin promoter-driven GFP, primary screen, imaging, TRM-6 cells (human fetal islet line), eGFP reporter, cell count | reporter expression induced with tamoxifen | 130,000 compounds, 0.9% hits | inhibition, % at 2 µM;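 active means inhibition above the mean plus 3 SD, with well images judged a real hit on visual review, cut at about 60% in these data, passing the limit was not always enough; inconclusive means inhibition over the cutoff but images rejected on review; inactive means inhibition not above the cutoff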
RGS16-Gao: modulators of RGS16 binding to Galphao, primary screen, biochemical, human proteins, multiplexed bead flow cytometry | AID 1441, 2008 | 220,000 compounds, 0.38% hits | Regulator of G-protein signaling 16 (Homo sapiens) + Guanine nucleotide-binding protein … | bead-based flow cytometry RGS16-Galphao binding, fluorescence; actives lie on both sides | binding response (% of control), % at 10 µM;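 active means below 25% or above 175%, edge rows of some plates excepted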;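 further: Galphao activated by GDP with aluminum fluoride before binding; 100% = wells without compound and 0% = beads without RGS; some results beyond the cut were filed as inactive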
Target sequence (O15492 whole entry, looked up): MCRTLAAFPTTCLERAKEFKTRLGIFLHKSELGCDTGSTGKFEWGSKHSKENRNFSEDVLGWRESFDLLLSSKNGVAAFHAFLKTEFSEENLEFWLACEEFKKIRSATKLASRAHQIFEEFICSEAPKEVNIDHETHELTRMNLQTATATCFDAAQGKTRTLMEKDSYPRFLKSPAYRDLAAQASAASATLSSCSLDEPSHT
Target sequence (P09471 whole entry, looked up): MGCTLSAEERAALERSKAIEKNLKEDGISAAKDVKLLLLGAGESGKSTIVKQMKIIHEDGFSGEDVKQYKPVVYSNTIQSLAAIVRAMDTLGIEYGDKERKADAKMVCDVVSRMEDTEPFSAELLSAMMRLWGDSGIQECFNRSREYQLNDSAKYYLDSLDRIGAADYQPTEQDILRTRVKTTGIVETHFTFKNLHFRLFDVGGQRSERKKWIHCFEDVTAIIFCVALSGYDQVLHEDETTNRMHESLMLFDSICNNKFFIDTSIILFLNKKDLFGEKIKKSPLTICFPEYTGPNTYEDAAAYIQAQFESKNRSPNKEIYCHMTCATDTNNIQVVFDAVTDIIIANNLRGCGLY
GALR2 agonist: GALR2 receptor agonists, primary screen, cell-based. Galanin receptor type 2 (Homo sapiens), O43603. GALR2-expressing cells, agonist activation read-out. activation, %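 (tested at 5 µM)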. 140,000 compounds, 0.48% hits. AID 803, 2007;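 active means above mean plus 3 SD of all compounds, about 5% in these data, not always enough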;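 further: 0% = vehicle buffer wells and 100% = reference agonist at full effect; tested in CHO reporter cells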
Target sequence (O43603 whole entry, looked up): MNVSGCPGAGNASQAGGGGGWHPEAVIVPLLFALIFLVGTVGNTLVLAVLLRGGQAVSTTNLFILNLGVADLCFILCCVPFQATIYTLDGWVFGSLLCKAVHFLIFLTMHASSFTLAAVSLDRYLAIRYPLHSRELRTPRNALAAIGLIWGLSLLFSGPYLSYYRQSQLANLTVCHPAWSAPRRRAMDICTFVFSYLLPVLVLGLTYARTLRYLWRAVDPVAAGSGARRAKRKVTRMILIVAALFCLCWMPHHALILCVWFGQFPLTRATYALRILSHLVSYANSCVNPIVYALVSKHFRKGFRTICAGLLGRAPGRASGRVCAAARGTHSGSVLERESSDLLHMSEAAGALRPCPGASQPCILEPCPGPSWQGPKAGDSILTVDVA
Insulin prom inh cell count: second read-out of Insulin prom inh, no call of its own (marks repeat the call); normalized cell count, %; measured here: cell count, toxicity; reference of the scale not given here;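 cells exposed to compound for 48 h; stained nuclei by imaging scaled within each plate; lower means fewer cells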
HSV replic up primary fold: second read-out of HSV replic up, no call of its own (marks repeat the call); fold increase; compound at 10 µM; measured here: primary screen fold increase 10 uM; tested in PC3 cells;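 GFP signal in the first replicate; 1 = infected wells without compound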
Active calls of the source: *; i = inactive; ? = inconclusive; nt = not tested or not shown.

SMILES | PKD1 inh | HSV replic up | HSV replic up primary fold | Insulin prom inh | Insulin prom inh cell count | RGS16-Gao | GALR2 agonist
CCCCCCCC(=O)N/N=C(\C)c1ccc(O)cc1O | -10 | i | 0.85 | nt | nt | 79 | -2.2
CC1=Nn2c(nc3sc4c(c3c2=O)CCCC4)SC1 | 5 | i | 0.93 | -19 | 111 | 106 | -0.4
COC(=O)c1ccc(-c2nc(-c3cccs3)no2)cc1 | -8 | i | 1 | nt | nt | 96 | -0.4
CC(C)N(Cc1nc(-c2ccc(Cl)cc2)no1)C(=O)CCC1CCCC1 | -4 | i | 0.9 | nt | nt | 100 | -2.9
CCc1nc2oc3cc(OC)ccc3c(=O)c2c(=O)n1-c1ccccc1 | 0 | i | 0.84 | 0 | 71 | 98 | -1.9
CC1(C)CC2(CC(c3ccccc3)Oc3cc(O)ccc32)NC(=O)N1 (stereo unspecified) | 0 | i | 1.1 | nt | nt | 101 | nt
O=C(CN1C(=O)C2C3C=CC(C4CC34)C2C1=O)NCc1ccco1 (stereo unspecified) | -2 | i | 0.98 | nt | nt | 102 | nt
COc1ccc([N+](=O)[O-])cc1NC(=O)c1ccc(N(Cc2ccccc2Cl)S(C)(=O)=O)cc1 | -7 | i | 0.84 | -15 | 134 | 104 | -1.4
O=C(CCN1CCOCC1)N/N=C/c1cc([N+](=O)[O-])ccc1OC(F)F | 2 | i | 0.97 | -64 | 102 | 104 | nt
COc1ccc(CCNc2ccc(C(CC(N)=O)NC(=O)c3ccc(Br)cc3)cc2[N+](=O)[O-])cc1 (stereo unspecified) | nt | i | 1 | nt | nt | 101 | nt
COc1cc(-c2nc(N)n[nH]2)cc(OC)c1OC | -3 | i | 0.89 | 16 | 51 | 93 | -2.1
Cc1ccc(CN2CCNC(=O)C2CC(=O)N2CCN(c3ncccn3)CC2)o1 (stereo unspecified) | -1 | i | 0.94 | nt | nt | 99 | nt
Cc1cc(S(=O)(=O)Nc2cccc(Cl)c2)c(C)s1 | 4 | i | 0.98 | 20 | 127 | 103 | nt
CN(C)S(=O)(=O)c1cccc(NC(=O)COC(=O)/C=C/c2ccc([N+](=O)[O-])cc2)c1 | -3 | i | 0.98 | 8 | 131 | 102 | nt
COc1ccc(C)cc1NC(=O)c1ccc([N+](=O)[O-])cc1[N+](=O)[O-] | -1 | i | 0.87 | nt | nt | 103 | nt
CNC(=S)N1CCC(c2nc3ccccc3s2)CC1 | -5 | i | 0.93 | nt | nt | 108 | nt
CN1CCN(c2nc3c(c(=O)n(C)c(=O)n3C)n2CCSc2nnnn2-c2ccccc2)CC1 | nt | i | 1 | nt | nt | 98 | nt
CC(C)(C)c1ccc(/C=N/Nc2cccc(C(=O)O)c2)cc1 | 1 | i | 0.96 | nt | nt | 88 | nt
CCC(=O)Nc1cccc(C(=O)Nc2nccs2)c1 | -4 | i | 1.1 | -17 | 60 | 39 | nt
O=[N+]([O-])C(=C1Nc2ccccc2N1)/C(Cl)=C(/Cl)Br | 0 | i | 0.84 | 12 | 130 | 105 | -0.9
COc1ccc(Br)cc1C(=O)Nc1cccc(C)c1C | -1 | i | 0.91 | -48 | 92 | 72 | -0.7
Cc1ccc(CN2CCN(Cc3ccc(-n4cccn4)cc3)CC2CCO)cc1 (stereo unspecified) | -5 | i | 0.92 | 17 | 96 | 102 | nt
CC(=O)Nc1ccc2c(c1)ncn2C1CCCCC1 | 9 | i | 0.98 | -40 | 130 | 107 | -2.5
Cc1cc(C)cc(N(CC(=O)NCc2ccco2)S(=O)(=O)c2c(C)noc2C)c1 | 2 | i | 1 | nt | nt | 104 | -3.3
CCN(CC)C(=O)N1CCC(NC(=O)c2ccccc2)CC1 | -1 | i | 1 | nt | nt | 83 | 0.6
O=C(COc1ccc2ccccc2c1)N/N=C/C1CC=CCC1 (stereo unspecified) | -14 | i | 1.1 | 15 | 157 | 105 | -1.1
CC12CC(c3ccccc3O1)C(/C(N)=N/NC(=O)c1ccc(F)cc1)C(=O)N2 (stereo unspecified) | -2 | i | 1.1 | nt | nt | 173 | 0.5
O=C(Nc1cccc(C(F)(F)F)c1)NC1CCCCC1 | 5 | i | 0.87 | -36 | 123 | 104 | 0.3
COc1ccc2[nH]c3c(NCCN(C(C)C)C(C)C)ncnc3c2c1 | -2 | i | 0.98 | 0 | 105 | 127 | 0.0
Cc1oc(-c2ccccc2)nc1Cn1cccc1C1=NC(c2ccccc2)CO1 (stereo unspecified) | 18 | i | 1.1 | -62 | 117 | 77 | -3.1
COc1ccc(N2CCN(S(=O)(=O)/C=C/c3ccccc3)CC2)cc1 | 3 | i | 0.94 | nt | nt | 102 | -1.9
COc1ccc(/C=N/NS(=O)(=O)c2ccc(C)cc2)cc1OC(=O)c1ccccc1 | 3 | i | 0.99 | -27 | 97 | 94 | -1.5
CCC(C)NC(=O)CC(NS(=O)(=O)c1ccc(NC(C)=O)cc1)C(C)C (stereo unspecified) | -4 | i | 0.97 | -47 | 71 | 101 | nt
CCn1c(SCC(=O)c2cc(OC)ccc2OC)nnc1-c1ccncc1 | 1 | i | 1 | -118 | 103 | nt | -1.3
CC(=O)c1cccc(N(CC(=O)NCC2CCCO2)C(=O)CCC(=O)Nc2cc(C)on2)c1 (stereo unspecified) | 15 | i | 1.1 | 43 | 98 | 98 | -1.4
O=C(O)CSc1nnc(-c2cccs2)n1-c1ccc(Cl)cc1 | 0 | i | 0.92 | -25 | 66 | 98 | -1.1
COc1cccc(C(=O)NCc2ccc3c(c2)cc(C)n3C)c1 | -11 | ? | nt | 12 | 48 | 106 | nt
COc1ccc(CN2CCCC(C(=O)c3cccc(C(F)(F)F)c3)C2)cc1O (stereo unspecified) | 7 | i | 0.84 | -33 | 196 | 105 | nt
Cc1c(C(=O)/C=C/N(C)C)nnn1-c1ccc(Cl)cc1C#N | nt | i | 1.1 | nt | nt | 106 | nt
C/C(=N\NC(=O)c1cc(C)[nH]n1)c1cccs1 | -1 | i | 0.95 | -71 | 103 | 96 | nt
Cc1ccc(C#N)c(SCC(=O)Nc2nccs2)n1 | 6 | i | 0.95 | nt | nt | 101 | nt
COC(=O)c1cc(=O)n(Cc2cccs2)c(=Nc2ccccc2)s1 | nt | i | 1 | nt | nt | 101 | nt
Cc1ccccc1-c1nc(CN2CCC(C(=O)N3CCN(c4ccccn4)CC3)CC2)c(C)o1 | 14 | i | 1.2 | nt | nt | 117 | -2.9
COc1ccccc1NC(=O)C1CC(=O)OC1c1ccccc1 (stereo unspecified) | 9 | i | 0.91 | -25 | 71 | 102 | -2.5
COc1cccc(-c2nnn(C/C(N)=N/O)n2)c1 | 4 | nt | nt | nt | nt | 110 | -2.3
CCCOc1ccc(S(=O)(=O)N2C(=O)CC(=O)N(Cc3ccc(OCC)cc3)C2=O)cc1 | nt | i | 1.2 | nt | nt | 77 | nt
COc1ccc(/C=C/C2=NN(Cc3ccccc3)C(=O)CC2)cc1 | -4 | i | 0.91 | -388 | 100 | 105 | nt
Cc1scc(C(=O)N/N=C/c2ccsc2)c1C | -8 | i | 1.1 | -7 | 57 | 79 | -0.4
O=C(NCc1ccccn1)c1cc(S(=O)(=O)N2CCN(c3ccccc3)CC2)ccc1Cl | -6 | i | 0.95 | -108 | 65 | 104 | -1.3
CCCC(=O)Nc1ccc(Cl)c(NC(=S)NC(=O)c2ccco2)c1 | -8 | i | 1 | nt | nt | 104 | -1.1
Cc1ccc(N2CCN(/N=C/c3sccc3C)CC2)cc1 | 3 | i | 0.84 | 13 | 123 | 101 | -2.7
Cc1nc([N+](=O)[O-])c(C(=O)OCc2ccccc2Br)n1C | -4 | i | 0.96 | nt | nt | 98 | nt
CCN(CC)c1ncccc1C(=O)NCc1cccs1 | -10 | i | 0.92 | -16 | 98 | 105 | -0.4
CCOC(=O)CC(NC(=O)CCc1c(C)nc2nc(C)nn2c1C)c1ccc(C)cc1 (stereo unspecified) | -1 | i | 0.92 | 0 | 70 | 100 | nt
Cc1ccc(-n2nc3ccc(NC(=O)c4cccc([N+](=O)[O-])c4C)cc3n2)cc1 | -5 | i | 0.87 | nt | nt | 124 | -0.2
Fc1ccc(NC(=S)NCc2cccnc2)cc1 | 1 | i | 0.94 | nt | nt | 100 | nt
COCCN(C(=O)C(C)C)c1nnc(-c2cccc(C)c2)s1 | -7 | i | 0.92 | 7 | 91 | 108 | -1.6
COC(=O)c1cc(NC(=O)CN2CCOCC2)cc(C(=O)OC)c1 | 3 | i | 0.95 | nt | nt | 102 | -3.1
CCOC(=O)c1c(-c2ccc(C)o2)csc1NC(=O)CSc1ncn[nH]1 | -5 | i | 1.2 | 27 | 139 | 94 | -2.1
O=C1NC(Cc2c[nH]c3ccccc23)C(=O)N1Cc1ccc(CN2C(=O)NC(Cc3c[nH]c4ccccc34)C2=O)cc1 (stereo unspecified) | 6 | i | 0.96 | -11 | 95 | 99 | nt

10 structures out of the list, ordered by length of the SMILES, descending:
SMILES | PKD1 inh | HSV replic up | HSV replic up primary fold | Insulin prom inh | Insulin prom inh cell count | RGS16-Gao | GALR2 agonist
CCCOc1ccc(S(=O)(=O)N2C(=O)CC(=O)N(Cc3ccc(OCC)cc3)C2=O)cc1 | nt | i | 1.2 | nt | nt | 77 | nt
Cc1ccccc1-c1nc(CN2CCC(C(=O)N3CCN(c4ccccn4)CC3)CC2)c(C)o1 | 14 | i | 1.2 | nt | nt | 117 | -2.9
O=C(NCc1ccccn1)c1cc(S(=O)(=O)N2CCN(c3ccccc3)CC2)ccc1Cl | -6 | i | 0.95 | -108 | 65 | 104 | -1.3
CCCC(=O)Nc1ccc(Cl)c(NC(=S)NC(=O)c2ccco2)c1 | -8 | i | 1 | nt | nt | 104 | -1.1
COC(=O)c1cc(NC(=O)CN2CCOCC2)cc(C(=O)OC)c1 | 3 | i | 0.95 | nt | nt | 102 | -3.1
COc1ccccc1NC(=O)C1CC(=O)OC1c1ccccc1 (stereo unspecified) | 9 | i | 0.91 | -25 | 71 | 102 | -2.5
COc1cccc(-c2nnn(C/C(N)=N/O)n2)c1 | 4 | nt | nt | nt | nt | 110 | -2.3
Cc1ccc(C#N)c(SCC(=O)Nc2nccs2)n1 | 6 | i | 0.95 | nt | nt | 101 | nt
Cc1scc(C(=O)N/N=C/c2ccsc2)c1C | -8 | i | 1.1 | -7 | 57 | 79 | -0.4
Fc1ccc(NC(=S)NCc2cccnc2)cc1 | 1 | i | 0.94 | nt | nt | 100 | nt

(more compounds)
SMILES | PKD1 inh | HSV replic up | HSV replic up primary fold | Insulin prom inh | Insulin prom inh cell count | RGS16-Gao | GALR2 agonist
CC(=O)Nc1cccc(NC(=O)c2ccc(C)c([N+](=O)[O-])c2)c1 | 0 | i | 0.99 | 14 | 109 | 100 | nt
COc1cccc(-c2nnc(-c3ccccc3NC(=O)c3ccc(C(C)(C)C)cc3)o2)c1 | nt | i | 0.97 | nt | nt | 99 | nt
CCOC(=O)C(C)Oc1cccc2c(=O)n(CC(=O)Nc3ccc(OCC)cc3)ccc12 (stereo unspecified) | 7 | i | 0.87 | nt | nt | 106 | -1.5
O=C(Nc1cc2ccccc2oc1=O)c1ccccc1 | 1 | i | 0.89 | 0 | 86 | 93 | nt
CCC(=O)Nc1cccc(C2=NOC3(C2)C[C@H](C(N)=O)N(C(=O)c2ccc(Cl)cc2)C3)c1 (stereo partly specified) | nt | i | 0.89 | nt | nt | 100 | nt
COc1ccc(NC(=O)CCC(=O)NCCO)cc1 | 0 | i | 0.99 | -38 | 67 | 112 | nt
Cc1ccc2c(c1)N(CC(=O)NC1CCC(C)CC1)C(=O)CO2 (stereo unspecified) | 5 | i | 0.85 | -46 | 205 | 98 | -1.1
O=C(CSc1nc(-c2ccccc2)cc(C(F)(F)F)n1)N1CCOCC1 | 9 | i | 0.88 | -10 | 122 | 121 | -3.7

Rows are unselected; 1.1% or so of the library scored in one or more.
